Bioassay records deposited in PubChem by National Center for Advancing Translational Sciences (NCATS).
D2 agonist – agonists of human D2 dopamine receptor (beta-arrestin) | P14416 | DiscoveRx PathHunter D2 beta-arrestin, luminescence, 90 min; 100% = 57 uM dopamine signal | activation, % (test concentration not listed) | actives 0.084% (n = 360,000) | AID 624465; in the data active = activation above about 40%; inconclusive = about 15% to 40%; inactive = below about 15%; note: compound concentration not given in the record; the text of the record calls up to 30% inactive
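Agonist mode: compounds alone added to overnight-plated D2 PathHunter cells for 90 min at 37 C, with 57 uM final dopamine (EC100) defining full response. Beta-arrestin recruitment detected by chemiluminescent reagent, read after 1 h at ambient temperature.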
gsp antagonist – antagonists of gsp mutant (McCune-Albright syndrome). gsp-mutant cells, cAMP HTRF, 30 min; control for the full effect not named in the record. Potency, µM (doses to about 76.9 µM), for inactives: at the top dose activity change, negative = inhibition, most hits filed as inhibitors. actives 0.4% (n = 340,000). AID 624288; active = falling curve of any shape with a large fitted effect; inconclusive = falling curve, mostly with a smaller effect; inactive = flat or rising curve; cell line not stated here;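 note: intracellular cAMP measured with PDE inhibitor Ro 20-1724 present during compound exposure; potency is the fitted concentration of half-maximal effect; % is set by controls: 0 for no effect and ±100 for the full control effect; nearly all actives have a fitted effect of over 65% in size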
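HTRF cAMP read-out (cAMP-d2 plus anti-cAMP antibody-K in lysis buffer, 30 min RT). Before lysis, cells are exposed to compounds with […] for 30 min at 37C in DPBS containing Ca/Mg, BSA and Tween 20.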
CtBP-E1A inh – CtBP/E1A binding inhibition | activity change, % (test concentration not listed) | AID 651724 | AlphaScreen GST-E1A/His-CtBP binding, 1536-well; stronger effect = lower value; control for the full effect not named in the record | actives 0.49% (n = 340,000); in the data active means activity change below about -65%; inconclusive means about -30% to -65%; inactive means above about -30%; note: % is set by controls: 0 for no effect and ±100 for the full control effect; compound concentration not given in the record
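Homogeneous bead-based format: GST-tagged E1A captured on glutathione donor beads, His-tagged CtBP on nickel acceptor beads; compounds precede bead addition by 2 h at 37 °C.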
Six1-Eya2 inh – inhibitors of human Six1/Eya2 interaction; AlphaScreen GST-Six1/His-Eya2 binding, biochemical; stronger effect = lower value; control for the full effect not named in the record; Q15475+O00167; activity change, % (no concentration beside the values); actives 0.56% (n = 360,000); in the data active = activity change below about -65%; inconclusive = about -30% to -65%; inactive = above about -30%; note: % is set by controls: 0 for no effect and ±100 for the full control effect; compound concentration not given in the record
Target sequence (O00167 whole entry, looked up): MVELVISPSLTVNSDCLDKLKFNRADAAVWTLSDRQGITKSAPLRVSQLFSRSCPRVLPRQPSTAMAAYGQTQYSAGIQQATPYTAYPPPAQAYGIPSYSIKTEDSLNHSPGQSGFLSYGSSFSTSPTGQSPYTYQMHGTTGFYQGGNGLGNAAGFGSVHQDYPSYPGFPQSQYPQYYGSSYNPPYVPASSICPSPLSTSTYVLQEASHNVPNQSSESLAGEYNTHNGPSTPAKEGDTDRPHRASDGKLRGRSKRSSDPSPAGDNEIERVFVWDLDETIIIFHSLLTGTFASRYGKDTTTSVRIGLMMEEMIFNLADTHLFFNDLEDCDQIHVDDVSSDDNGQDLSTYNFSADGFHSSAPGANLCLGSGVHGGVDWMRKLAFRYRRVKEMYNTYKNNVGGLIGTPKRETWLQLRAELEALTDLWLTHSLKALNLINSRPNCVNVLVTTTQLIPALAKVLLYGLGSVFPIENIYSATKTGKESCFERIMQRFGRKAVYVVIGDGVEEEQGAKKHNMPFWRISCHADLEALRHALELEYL
Target sequence (Q15475 whole entry, looked up): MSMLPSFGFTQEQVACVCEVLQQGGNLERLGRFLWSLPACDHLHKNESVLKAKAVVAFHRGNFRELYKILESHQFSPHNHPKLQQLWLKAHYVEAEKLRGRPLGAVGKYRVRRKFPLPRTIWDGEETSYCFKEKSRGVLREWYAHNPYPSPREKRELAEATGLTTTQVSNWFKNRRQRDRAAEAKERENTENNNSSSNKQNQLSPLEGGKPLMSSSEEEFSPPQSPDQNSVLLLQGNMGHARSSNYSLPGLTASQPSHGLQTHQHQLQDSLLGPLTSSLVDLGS
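Compounds are tested against tagged Six1 and Eya2 proteins bridged by glutathione donor and nickel acceptor beads; after a one-hour incubation at 37 °C without light, AlphaScreen emission is recorded.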
D2 potentiator – human D2 receptor positive allosteric modulation. P14416. potentiation, % (concentration not given with the values). DiscoveRx D2 beta-arrestin cells, luminescence, 90 min; 100% = 57 uM dopamine signal. actives 0.23% (n = 360,000); active = potentiation of 50% or more; inconclusive = 30% to 50%; inactive = 30% or less;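 note: compound concentration not given in the record; tested on top of an EC20 dose of dopamine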
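D2 cells co-treated with compound plus 50 nM dopamine (EC20) for 90 min at 37 deg C to detect potentiation. Beta-arrestin recruitment was read as enzyme-fragment luminescence after 1 h at ambient temperature. Full response was set by 57 uM dopamine.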
gsp agonist – agonists of gsp mutant (McCune-Albright syndrome); gsp mutant cells, cAMP HTRF, 30 min; control for the full effect not named in the record; Potency, µM (series often up to 76.9 µM), for inactives: top-dose activation (cAMP increase), hits mostly activators; actives 0.13% (n = 340,000); active = well fitted activation curve with a large enough effect; inconclusive = small, poorly fitted or top-dose-only effect, or another doubt; inactive = no such curve, though single readings can be large or run the other way; cell line not stated here;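 note: phosphodiesterase inhibitor Ro 20-1724 added with compounds to block cAMP breakdown; potency is the fitted concentration of half-maximal effect; nearly all actives have a fitted effect of over 60% in size; about a fifth of the inactives were tested at one dose only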
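Cells in DMEM/10% FBS with G418 were pretreated with compounds in DMSO plus […] (300 uM stock) for 30 min at 37C. cAMP was measured by HTRF (cAMP-d2 plus anti-cAMP antibody-K) after 30 min at room temperature.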
* hit, by the source's call; ? = inconclusive; nt = not tested or not shown; [ ] = remark or other dose.

SMILES | D2 agonist | gsp antagonist | CtBP-E1A inh | Six1-Eya2 inh | D2 potentiator | gsp agonist
O=C(NCc1ccccn1)c1cn(CCc2ccccc2)nn1 | -4.6 | 5.2% | -1.3 | 0.1 | -17.9 | 10.3%
O=C(NC(=S)Nc1ccccc1[N+](=O)[O-])c1ccco1 | -4.4 | -6.6% | -9.4 | -4.4 | -9.4 | -29.4%
Cn1c(=O)cc(SCC(=O)N2CCCC2)c2ccc(Cl)cc21 | -0.6 | -18.8% | -13.6 | -12.3 | -2.8 | 11.2µM*
N/C(=N\OC(=O)CCC1CCCCC1)c1cccnc1 | -0.7 | -6.0% | 5.8 | -2.0 | 7.3 | 0.0%
O=c1c2cc3c(=O)n(CC4CCCO4)c(=O)c3cc2c(=O)n1CC1CCCO1 (stereo not drawn) | 0.7 | 0.8% | -0.3 | 3.4 | -1.7 | ?
CC1(C)CC(=O)C(N=Nc2cc(S(=O)(=O)N3CCOCC3)ccc2Cl)=C(O)C1 | 5.6 | 15.7% | 0.3 | 2.2 | -1.7 | 11.8%
COc1ccc(CNc2ncnc3c2[nH]c2ccccc23)cc1 | 4.3 | -27.0% | -17.6 | -14.4 | -19.3 | 6.2%[15.4 µM]
NC1=NC(=O)C(c2ccccc2)(c2ccccc2)S1 | -1.5 | -3.3% | 2.1 | 2.4 | -3.7 | -20.0%
Cc1cccc(NC(=O)c2nc[nH]c2C(=O)N[C@@H](C)C(=O)OC(C)(C)C)c1 | -0.7 | -12.9% | -7.1 | -5.7 | -3.1 | -3.3%
O=C1OC(CCl)CN1Cc1c(Cl)cccc1Cl (stereo not drawn) | -3.7 | -8.0% | 7.9 | 7.2 | -7.1 | -8.6%[15.4 µM]
CCN(CCN1CCCC1)C(=O)C1CCC(=O)N(CCCN2CCOCC2)C1 (stereo not drawn) | -1.4 | 5.5% | 1.9 | 19.4 | -0.2 | 3.9%[15.4 µM]
Cc1c(Cl)cnc(NC(=O)CSc2nnc3ccccn23)c1Cl | 0.5 | 11.8% | -4.2 | -1.1 | -18.5 | ?
O=C(NN=Cc1ccc(O)cc1)C(=O)NN=Cc1ccc(O)cc1 | 5.1 | 4.1% | -4.4 | -6.0 | 6.5 | -31.0%[inhibitor]
CNC(=S)N1N=C(c2ccccc2)CC1c1ccc(OC)c(OC)c1 (stereo not drawn) | -2.4 | -1.9% | -8.1 | 2.3 | -6.1 | ?
O=C(CSc1nnc(-c2cccnc2)s1)Nc1ccc(C(=O)O)cc1 | 0.0 | 2.8% | 0.3 | 0.7 | -12.6 | 0.0%
CCn1cc([N+](=O)[O-])c(C(=O)Nc2ccn(Cc3ccccc3F)n2)n1 | -1.0 | 6.0% | 6.8 | 3.8 | -2.1 | -28.2%
O=C(NCCOc1ccc(F)cc1)C1CCC(=O)N(CCCN2CCOCC2)C1 (stereo not drawn) | 4.4 | 13.1% | 5.3 | 2.3 | 3.0 | ?
COc1cc(S(=O)(=O)NCc2ccncc2)ccc1Br | 1.2 | 0.5% | -4.8 | 19.6 | -1.5 | -41.6%[inhibitor]
CCC(=O)n1nc(-c2cccnc2)nc1NCc1ccc(F)cc1 | -5.4 | -14.0% | 5.8 | 16.5 | -7.0 | -5.2%[15.4 µM]
O=C(NC1CCCCC1)c1ccc(-c2ccc(Cl)cc2)o1 | -0.8 | ? | -1.2 | -7.6 | -24.2 | 25.9%[15.4 µM]
Cc1ccc(Cl)cc1N1CCN(C(=O)C2CCC(=O)N(C3CCCCCC3)C2)CC1 (stereo not drawn) | 2.7 | -9.4% | 0.0 | 0.0 | -38.1 | -16.3%
COc1ccccc1NC(=O)c1ccc(NC(=O)CSc2ncn[nH]2)cc1 | 0.5 | 3.6% | 1.2 | 9.1 | -6.7 | 1.6%
CN(C)/C=N/c1cc(=O)[nH]c(=O)n1C | 1.2 | 9.1% | 5.8 | 0.9 | -1.2 | -19.4%
CCc1cccc(C)c1NC(=O)CCCN1C(=O)CN(C)C1=O | -2.0 | 11.9% | -1.6 | 0.7 | -16.1 | -9.1%
O=[N+]([O-])c1cccc(C(=Nc2ccc(Cl)cc2)NO)c1 | -1.0 | 7.4% | 3.7 | -3.5 | 4.9 | -21.4%
O=S(=O)(NCc1cc(-c2ccccc2)no1)c1ccc(Cl)cc1 | -1.5 | 15.8% | 4.0 | 5.7 | -1.6 | -18.7%
Cc1cn([C@H]2C[C@H](O)[C@@H](CCC(=O)NCCc3cccs3)O2)c(=O)[nH]c1=O | -4.0 | nt | 10.9 | 8.0 | -6.3 | nt
CCCOc1ccc(N/C=C/C(=O)C(C)(C)C)cc1 | -0.3 | -6.0% | nt | 6.5 | -9.5 | 26.5%
CCOC(=O)c1cc(-c2ccccc2)n(CC2CC(c3ccc(OC)cc3)=NO2)n1 (stereo not drawn) | 5.9 | ? | 0.0 | -2.5 | -3.0 | 0.3%
COc1ccc(N=Cc2c(O)n(-c3cccc(C)n3)c(=O)c3ccccc23)c(OC)c1 | -3.1 | 7.4% | 4.5 | -1.2 | 1.7 | 9.7%[15.4 µM]
CC(=O)N1CCCc2cc(S(=O)(=O)N3CCCC(C(=O)NCc4ccc(C)cc4)C3)ccc21 (stereo not drawn) | -3.1 | -4.6% | 2.0 | 5.7 | -4.9 | ?
CC1(C(=O)NS(=O)(=O)c2cccc(C#N)c2)CCN1C(=O)c1ccccc1CCc1ccccc1 (stereo not drawn) | 1.7 | nt | 7.1 | 3.3 | 4.5 | nt
N#C/C(=N\Nc1ccc(F)cc1)C(=N)N1CCCCC1 | -1.5 | -4.0% | -1.2 | -6.1 | -11.5 | -35.7%[inhibitor]
Cc1cc(OCC(=O)NCc2cccnc2)c2c(C)c(Cc3ccccc3)c(=O)oc2c1 | -0.3 | ? | 5.0 | 1.6 | -1.1 | 9.6%
O=C(NCc1csc(-c2cccs2)n1)C1CCC1 | -2.8 | -2.7% | nt | 0.0 | -16.2 | 22.8%
O=C1NC(=S)S/C1=C/c1ccc(N2CCOCC2)o1 | -3.0 | ? | -26.9 | ? | -16.1 | 29.4%
Cc1ccc(CNC(=O)C2C3C=CC(C3)C2C(=O)O)cc1 (stereo not drawn) | -1.0 | 4.9% | 8.5 | -2.5 | -5.1 | 0.5%
O=C(CN(C(=O)c1csnn1)c1cccc(F)c1)NCc1ccc2c(c1)OCO2 | -1.4 | 2.1% | -2.9 | 4.6 | -4.2 | ?
O=C(N/N=C/c1ccc(Cl)cc1Cl)Nc1ccccc1 | 4.6 | 3.3% | -2.3 | -0.6 | 2.3 | -12.1%
CN(c1ccc(C(=O)Nc2ccc(F)cc2F)cc1)S(=O)(=O)c1ccccc1 | -1.3 | -12.8% | -1.5 | 10.8 | 1.0 | -35.4%[inhibitor]
Cc1cc(OCCCn2cnc3ccccc3c2=O)ccc1[N+](=O)[O-] | -2.8 | -7.1% | 0.0 | -9.1 | -14.3 | 7.3%
COc1cccc(-c2nn(-c3ccccc3)cc2CN2CCCO2)c1 | -2.1 | -13.5% | 0.3 | 0.1 | -1.7 | 7.1%[15.4 µM]
CN(C)c1nc(N)nc(Nc2ccccc2C#N)n1 | -1.5 | 9.0% | 14.1 | 0.2 | 22.5 | 10.1%
S=c1nc(-c2ccccc2)c(-c2ccccc2)n[nH]1 | -0.9 | -9.6% | nt | ? | 6.9 | -96.0%[inhibitor]
CCCCN1C(=O)C(CC(=O)NCC2CCCCC2)CC(C(=O)N(CC)CC)=C1C (stereo not drawn) | 5.2 | nt | 4.8 | 26.6 | 4.3 | -67.5%[inhibitor]
O=C(CCNC(=O)C1CCN(S(=O)(=O)c2ccccc2)CC1)NCc1ccc(Cl)cc1Cl | -1.3 | 2.2% | nt | 0.0 | -10.6 | -7.2%
CCC(O)(CC)C(=O)NN(C(=O)CCl)c1ccccc1 | -2.8 | ? | 6.6 | 7.7 | -1.6 | 0.0%
O=C(CCn1nc(-c2ccccc2)ccc1=O)N1CCOCC1 | -0.2 | 7.9% | 3.9 | -5.1 | -2.0 | -6.2%
Cc1ccc(NC(=O)c2cccc(C(=O)Nc3ccc(C)cc3C(=O)O)c2)c(C(=O)O)c1 | 1.3 | ? | ? | ? | -0.9 | 19.3%
COc1ccc(Cl)cc1NC(=O)c1cccc(N2C(=O)C3CC=CCC3C2=O)c1 (stereo not drawn) | 2.0 | ? | -18.2 | 1.0 | -10.7 | -33.3%[inhibitor]
COC(=O)c1ccc(NC(=O)CNC(=O)C2CCCCC2)cc1 | 0.3 | 8.4% | -8.8 | -15.3 | 1.7 | -16.0%
COc1ccccc1C(=O)N1CCN=C1SC | 0.2 | 0.0% | 7.3 | 1.8 | 2.6 | 2.9%
CCn1c2ccccc2c2cc(NC(=O)CNCC3CCCO3)ccc21 (stereo not drawn) | -1.0 | 0.2% | nt | -0.6 | -16.4 | 11.4%[15.4 µM]
CCN(C(=O)COC(=O)C(C)(C)Oc1ccc(Cl)cc1)c1c(N)n(Cc2ccccc2)c(=O)[nH]c1=O | -2.0 | 5.8% | 11.2 | 1.5 | -6.3 | -37.1%[inhibitor]
CCC(C)Sc1nc(O)cc(=O)[nH]1 (stereo not drawn) | 3.2 | 0.0% | 1.7 | 5.3 | -7.0 | -14.5%
CCN(CC)CCNC(=O)c1c(O)c2cc(OC)c(OC)cc2[nH]c1=O | -3.7 | 10.1% | -13.2 | -0.6 | -10.6 | -1.9%[15.4 µM]
O=C1OC(/C=C/c2ccc(Cl)cc2Cl)=NC/1=C\c1cccs1 | 1.7 | 10.2% | -1.8 | 0.0 | -2.5 | 20.7%
COc1ccc(OCC(=O)c2c(O)c3ccccc3oc2=O)cc1 | 5.1 | -9.8% | 10.4 | 2.2 | -2.1 | -26.0%
O=C(COC(=O)CCCSc1nc2ccccc2[nH]1)Nc1ccc(Cl)cc1 | -1.0 | -10.7% | 4.8 | 4.0 | -19.2 | 19.2%
CN(C)S(=O)(=O)c1cccc(NC(=O)COc2ccccc2C(=O)Nc2ccccc2)c1 | 5.4 | nt | -19.0 | ? | 3.8 | -7.5%
CCC(C)NC(=O)C1CCN(S(=O)(=O)c2cccnc2)CC1 (stereo not drawn) | -3.5 | 9.6% | -1.2 | 0.5 | -6.6 | -43.9%[inhibitor]

Arranged by SMILES length (largest number first): 3 of the compounds above
SMILES | D2 agonist | gsp antagonist | CtBP-E1A inh | Six1-Eya2 inh | D2 potentiator | gsp agonist
Cc1ccc(NC(=O)c2cccc(C(=O)Nc3ccc(C)cc3C(=O)O)c2)c(C(=O)O)c1 | 1.3 | ? | ? | ? | -0.9 | 19.3%
O=C(CCNC(=O)C1CCN(S(=O)(=O)c2ccccc2)CC1)NCc1ccc(Cl)cc1Cl | -1.3 | 2.2% | nt | 0.0 | -10.6 | -7.2%
COc1ccc(Cl)cc1NC(=O)c1cccc(N2C(=O)C3CC=CCC3C2=O)c1 (stereo not drawn) | 2.0 | ? | -18.2 | 1.0 | -10.7 | -33.3%[inhibitor]

Rows are unselected (roughly 1.4% active in at least one column).
